GLA inh pH 4.5: qHTS Assay for Inhibitors of Human alpha-Galactosidase at pH 4.5 | purified enzyme, 4-MU-alpha-Gal fluorescence, pH 4.5 | activity change, negative = inhibition, % at 105 µM | 230,000 tested, under 10 active | AID 1467, 2008; inconclusive = small, poorly fitted or top-dose-only inhibition, or a rising curve; inactive = flat fitted curve, though single readings scatter; no compound was filed as active;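 note: 0% = full activity with enzyme and -100% = basal without enzyme; dose as in the result columns while the protocol names 77 µM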
Rango release inh: qHTS Assay for Inhibitors of RanGTP induced Rango (Ran-regulated importin-beta cargo) - Importin beta complex dissociation. Snurportin-1 (Homo sapiens) + GTP-binding nuclear protein Ran (Homo sapiens) + Importin …. Biochemical FRET Rango-importin beta, RanGTP-induced dissociation. Potency, µM (series often up to 46.1 µM), without a hit: at the top dose activity change, negative = inhibition. 0.071% of 340,000 active; active means falling FRET ratio curve, often poorly fitted, with flat reads before Ran was added; inconclusive means other falling curves, or compound fluorescence or quenching; inactive means flat or rising ratio curve;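 note: potency is the fitted concentration of half-maximal effect; % of control where 0% means no effect; nearly all actives have a fitted effect of over 45% in size; -100% = wells without RanGTP and RCC1; the record marks most hits as doubtful in a second field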
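Two FRET readings bracket the reaction: one 5 min after compound meets Rango–importin beta, another 45 min after RanGTP-RCC1 (0.6 uM Ran, 0.2 uM RCC1, 2 mM GTP) is added. Only the second defines inhibition.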
miR-21 reporter: qHTS Assay for Modulators of miRNAs and/orActivators of miR-21. HeLa miR-21 FLuc reporter, luciferase, 48 h. Potency, µM (titrated, usually from 38.3 µM), without a hit: at the top dose reporter change, positive = more light. 340,000 tested, under 10 active; active = well fitted rising curve with a large enough effect; inconclusive = small, poorly fitted or top-dose-only effect; inactive = no such curve, though single readings can be large or run the other way;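 note: % of control where 0% means no effect; miR-21 action dims this reporter so a rising signal means less miR-21 action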
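Luminescence from a firefly luciferase reporter carrying a miR-21 binding site downstream, stably expressed under a CMV promoter in HeLa cells that make miR-21 endogenously, reports miRNA modulation after 48 h compound exposure up to approximately 40uM final.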
Rango-impB inh: qHTS Assay for Inhibitors of Rango (Ran-regulated importin-beta cargo) - Importin beta complex formation; Importin subunit beta-1 (Homo sapiens), Q14974; Rango CFP/YFP FRET sensor + importin beta, 45 min; Potency, µM (top dose mostly 92.2 µM), for inactives: at the top dose inhibition of complex formation; 0.031% of 340,000 active; active = rising FRET ratio curve, often small or poorly fitted; inconclusive = mostly compound fluorescence or quenching in the first reads; inactive = flat curves in all reads;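 note: potency is the fitted concentration of half-maximal effect; 0% = DMSO wells and 100% = buffer wells lacking importin beta; nearly all actives have a fitted effect of over 15% in size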
Target sequence (Q14974 whole entry, looked up): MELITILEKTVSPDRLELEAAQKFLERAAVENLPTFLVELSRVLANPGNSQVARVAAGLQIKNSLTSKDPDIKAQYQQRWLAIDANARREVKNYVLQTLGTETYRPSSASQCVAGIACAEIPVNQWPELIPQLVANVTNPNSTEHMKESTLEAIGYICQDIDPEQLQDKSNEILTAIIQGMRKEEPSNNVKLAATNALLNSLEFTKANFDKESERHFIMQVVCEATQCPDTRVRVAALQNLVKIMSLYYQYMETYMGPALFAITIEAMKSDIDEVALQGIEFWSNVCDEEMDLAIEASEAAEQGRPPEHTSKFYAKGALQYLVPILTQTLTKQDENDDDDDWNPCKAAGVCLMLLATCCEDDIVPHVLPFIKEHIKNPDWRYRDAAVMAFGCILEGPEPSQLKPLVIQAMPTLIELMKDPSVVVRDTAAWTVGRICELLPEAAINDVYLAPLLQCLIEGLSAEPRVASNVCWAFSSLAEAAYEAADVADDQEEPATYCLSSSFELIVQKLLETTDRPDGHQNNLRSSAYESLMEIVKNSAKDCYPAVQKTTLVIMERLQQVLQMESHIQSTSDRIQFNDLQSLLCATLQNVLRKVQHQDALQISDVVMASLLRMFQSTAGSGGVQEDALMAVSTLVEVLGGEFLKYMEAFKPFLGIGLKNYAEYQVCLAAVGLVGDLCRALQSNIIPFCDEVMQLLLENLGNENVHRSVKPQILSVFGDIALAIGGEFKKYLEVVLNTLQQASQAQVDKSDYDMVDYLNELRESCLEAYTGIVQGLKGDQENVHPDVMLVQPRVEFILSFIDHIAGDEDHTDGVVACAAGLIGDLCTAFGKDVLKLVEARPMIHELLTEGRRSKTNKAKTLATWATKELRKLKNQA
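FRET biosensor Rango (snurportin 1 IBB between N-terminal EYFP and C-terminal Cerulean), 50 nM in PBS/1 mM DTT/0.02% Tween-20/0.1% BSA, preincubated 5 min RT with compound; 0.125 microM importin beta added, 45 min RT, CFP/YFP FRET ratio read.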
* hit, by the source's call; ? = inconclusive; nt = no result given; & = joins results of further samples; [ ] = dose if it differs, or a comment.

SMILES	GLA inh pH 4.5	Rango release inh	miR-21 reporter	Rango-impB inh
Nc1ccc2oc(-c3cccs3)nc2c1	-10.1	-12.6%	-45.9%	0.1%
COc1cccc(C(=O)CSc2nnc(COc3cccc4cccnc34)o2)c1	-6.4	-7.0%	7.4%	0.3%
O=C(Cc1ccc(Cl)cc1)N1CCN(c2ccc(F)cc2)CC1	nt	-5.3%	-3.7%	-1.0%
CCn1ncc(/C=C/C(=O)c2ccccc2)c1C	4.6	10.4%	-62.2%	1.3%
COC(=O)c1cc(C(=O)NCCC(C)C)cc([N+](=O)[O-])c1	nt	-7.3%	0.6%	2.3%
CC1(C)CC(=O)C=C(N2CCCC2)C1	3.5	1.2%	-1.9%	-0.1%
CC1(C)CC(CCNC(=O)c2ccco2)CC(C)(C)N1	2.9	-16.7%	-8.0%	-0.5%
CCOC(=O)C1Oc2ccccc2C(c2ccc(OC)cc2)=C1C(=O)OC (stereo not given)	-16.3	18.3%	nt	0.1%
O=C(N/N=C/c1cc(Cl)ccc1O)c1ccccc1Br	-9.1	?	17.4%	?
O=C(NCCc1ccc(Cl)cc1)C1CCC(=O)N(C2CCCCCC2)C1 (stereo not given)	nt	15.7%	3.2%	-3.8%
Cc1cc(OCC(=O)Nc2ccc(N3CCN(C)CC3)cc2)ccc1Cl	nt	-5.8%	-35.3%	2.3%
Cc1ccc2cc(CN(CC(C)C)S(=O)(=O)c3ccccc3)c(=O)[nH]c2c1	nt	21.7%	0.2%	-3.9%
COc1ccc(C(=O)NCCN2CCCC2)cc1OC	0.9	2.0%	-1.3%	0.6%
Cc1nc2scc(C)n2c(=O)c1S(=O)(=O)NCCc1ccc(Cl)cc1	nt	0.5%	0.5%	0.6%
Cc1ccc(S(=O)(=O)N2CCN(C(=O)c3cc(S(=O)(=O)N4CCOCC4)ccc3F)CC2)cc1	nt	6.9%	nt	-3.3%
COc1ccc2nc3c(nc2c1)CCCC3	nt	2.5%	-24.1%	6.1%
CCCOc1ccc(C(C)(O)CN2CCOCC2)cc1 (stereo not given)	-2.3	7.3%	0.7%	-1.4%
COc1c(C)cc(Br)cc1C(=O)O	6.4	-8.5%	-6.5%	-0.6%
Cc1c(C#N)c(O)n(C)c(=O)c1N=Nc1ccc(S(N)(=O)=O)cc1	-10.6	-15.1%	-32.6%	7.1%
Cc1cc(C)c(NC(=O)COc2nncc3ccccc23)c(C)c1	3.3	-15.4%	-2.3%	3.8%
O=C1[C@H](Cc2ccccc2)NCC=CC[C@H](c2ccc(Cl)cc2)N1Cc1ccc(Cl)cc1	nt	-14.3%	nt	-0.2%
CCOC(=O)C1CCN(C(=O)CN(Cc2ccccc2)S(C)(=O)=O)CC1	-2.7	6.6%	-1.5%	2.2%
O=C(CCSCCc1ccccn1)Nc1c(F)c(F)c(F)c(F)c1F	-1.0	-7.3%	-4.9%	-1.6%
CCOC(=O)Cn1cnc2c(C#N)c3n(c2c1=O)CCCCC3	-1.2	4.5%	-8.3%	0.4%
O=C(NCCC1=CCCCC1)c1ccc(Cl)c(S(=O)(=O)N2CCCCC2)c1	nt	0.3%	12.3%	-2.6%
Remaining list, next part:
SMILES	GLA inh pH 4.5	Rango release inh	miR-21 reporter	Rango-impB inh
COc1ccc(CCNC(=O)CCCc2nnc3n(C)c(=O)c4sccc4n23)cc1OC	nt	16.2%	-0.5%	?
Cc1ccc(S(C)(=O)=NC(=O)NC(=O)c2c(F)cccc2Cl)cc1 (stereo not given)	1.4	-20.1%	-11.2%	0.0%
Cc1ccc(S(=O)(=O)Oc2ccc(/C=N/NC(=O)c3nn(C)cc3Cl)cc2)cc1	-16.1	0.5%	-25.0%	2.3%
CCOC(=O)C1CCN(S(=O)(=O)C(F)(F)c2nc3ccccc3s2)CC1	-0.2	-16.3%	0.5%	0.1%
Cc1ccc(Nc2nc(/N=C/NO)n[nH]2)cc1C	4.3	-9.7%	-58.3%	0.8%
c1ccc(Cn2c(SCc3cn4cccnc4n3)nnc2-c2ccco2)cc1	-0.5	15.2%	-3.7%	0.8%
CCOC(=O)C1Nc2ccc(C(F)(F)F)cc2C2c3ccccc3CC12 (stereo not given)	nt	9.7%	nt	5.4%
O=C(NCc1ccccc1)c1cccc(NC(=O)C2CCCC2)c1	nt	-16.6%	nt	-2.3%
COc1ccccc1/C=N/Nc1nncc2ccccc12	2.9	-2.8%	-91.1%	0.2%
Cc1cc(C(=O)N/N=C/c2cc(Br)ccc2OC(=O)c2ccc(Br)cc2)n[nH]1	-1.6	nt	-8.1%	nt
NC(=O)N/N=C/c1c(O)ccc2oc3c(c12)CCCC3	-8.7	-9.2%	5.6%	-1.5%
CCOC(=O)C1(CCOc2ccccc2)CCN(Cc2ccc(CO)o2)CC1	-1.2	11.1%	13.7%	-2.0%
COC(=O)C(CC(=O)c1cccc(OC)c1)c1ccc(F)cc1 (stereo not given)	-6.6	7.6%	-3.9%	-3.6%
O=C(NCCCN=C1NS(=O)(=O)c2ccccc21)c1ccco1	5.8	16.9%	-8.0%	-5.8%
NS(=O)(=O)c1ccc(CCNC(=O)CSc2nc3ccsc3c(=O)n2CC(=O)O)cc1	-2.5	35.3%	-3.8%	-2.5%
Cc1ccc(NC(=O)c2ccc(N3CCCC3=O)cc2)cc1S(=O)(=O)N1CCCCC1	nt	14.7%	nt	-2.3%
Cc1ccc(C(=O)n2nc(C#N)c(C#N)c2N)cc1	-2.7	0.9%	-1.2%	3.2%
CCC1(c2ccccc2)NC(=O)N(CC(=O)NCc2ccc(OC)cc2)C1=O (stereo not given)	nt	8.3%	-0.3%	-4.4%
CCN1C(=S)N[C@@H](CCc2ccccc2)C(C(=O)OC)=C1C	nt	5.3%	-0.5%&9.9%	0.5%
COc1ccc(C(=O)NCCc2nnc3ccc(SCC(=O)NCc4ccc(F)cc4)nn23)cc1	nt	-12.6%	-0.5%	0.9%
COc1cccc(NC(=O)CN(C)C(=O)CNC(=O)c2ccc(C)s2)c1	nt	6.9%	nt	-2.2%
C=CCN(c1nc(C)cc(OC)n1)S(=O)(=O)c1ccc(C)cc1	nt	13.9%	-3.7%	-1.0%
Cc1ccc(CNC(=O)COC(=O)c2nc(-c3ccccc3)oc2C)cc1	nt	16.3%	nt	0.1%
CCOc1ccccc1C(=O)Nc1ccc(S(=O)(=O)Nc2cc(OC)nc(OC)n2)cc1	nt	3.4%	-13.9%	6.9%
CC(C)(C)OC(=O)N1CCCN(C(=O)Nc2ccccc2)CC1	-3.4	-5.6%	-2.7%	0.2%

Molecules listed so far with two or more sulfur atoms (four):
SMILES	GLA inh pH 4.5	Rango release inh	miR-21 reporter	Rango-impB inh
Cc1nc2scc(C)n2c(=O)c1S(=O)(=O)NCCc1ccc(Cl)cc1	nt	0.5%	0.5%	0.6%
Cc1ccc(S(=O)(=O)N2CCN(C(=O)c3cc(S(=O)(=O)N4CCOCC4)ccc3F)CC2)cc1	nt	6.9%	nt	-3.3%
CCOC(=O)C1CCN(S(=O)(=O)C(F)(F)c2nc3ccccc3s2)CC1	-0.2	-16.3%	0.5%	0.1%
NS(=O)(=O)c1ccc(CCNC(=O)CSc2nc3ccsc3c(=O)n2CC(=O)O)cc1	-2.5	35.3%	-3.8%	-2.5%

Further records.
SMILES	GLA inh pH 4.5	Rango release inh	miR-21 reporter	Rango-impB inh
COc1cc(C(=O)Nc2cccc(C)c2C)ccc1OCC(=O)N1CCOCC1	nt	-1.8%	nt	?
O=C(Nc1ccc(Cl)cc1)OCc1ccccn1	4.2	7.0%	-64.6%	-0.1%
CC(Sc1nnc(Cc2ccccc2)o1)C(=O)NC1(C#N)CCCCC1 (stereo not given)	nt	8.9%	nt	?
CC(NC(=O)Cn1c(=O)oc2cc(S(=O)(=O)N3CCCC3)ccc21)c1ccccc1 (stereo not given)	0.3	5.6%	-0.3%	0.1%
Cc1cc(C(F)(F)F)nn1CC(=O)Nc1ccc2c(c1)OCO2	nt	?	-4.8%	1.5%
CC(=O)N1c2ccc(S(=O)(=O)NCCC(=O)Nc3ccc(C)cn3)cc2CC1C (stereo not given)	nt	-16.8%	0.6%	0.0%
COCC(=O)Nc1ccc(N2CCN(c3ccccc3)CC2)c(F)c1	nt	-3.4%	-0.4%	0.9%
COc1ccc(C(=O)Nc2cnc3sc(C)nn3c2=O)cc1	-2.9[21.1 µM]	15.2%	-24.2%	?
O=[N+]([O-])c1ccc(Cl)c(S(=O)(=O)NCC2CCCO2)c1 (stereo not given)	-3.1	-3.5%	-2.5%	-1.2%
Cc1ccccc1Cn1c(C)cc(C)c(C#N)c1=O	-0.6	-13.0%	-1.0%	-3.4%
Cc1ccccc1S(=O)(=O)Cc1ccc(C(=O)NCCCN2CCCC(C)C2)o1 (stereo not given)	nt	18.7%	-3.9%	-0.6%
CN(Cc1ccccc1)C1CC(=O)N(c2ccc(C(=O)O)cc2)C1=O (stereo not given)	-2.0	-4.5%	-10.8%	?
COc1ccc(C2NC(=O)N(C)C(C)=C2[N+](=O)[O-])cc1 (stereo not given)	nt	3.0%	1.7%	0.1%
CCCCOc1ccccc1C(=O)NCCCCCC(=O)O	3.3	3.1%	-1.3%	-0.1%
O=C(CN(C(=O)CCC(=O)Nc1nccs1)c1cccc(F)c1)NCC1CCCO1 (stereo not given)	4.4	3.8%	-4.1%	-3.3%
COc1ccc(C2C(C(=O)C(C)(C)C)=C(O)C(=O)N2Cc2ccccc2)cc1 (stereo not given)	3.6	-7.5%	-0.7%	-2.7%
Cc1ccc(CNS(=O)(=O)NCc2ccccc2F)cc1	-13.1	1.2%	-6.1%	0.3%
O=C(OCC(=O)N1CCCC1=O)C1CCN(S(=O)(=O)c2c(Cl)cccc2Cl)CC1	nt	1.2%	-0.4%	0.5%
Nc1sc2c([n+]1CCCS(=O)(=O)[O-])CCCC2	-5.8	1.1%	-1.6%	-1.9%
C#CCOCCOCCOCCNc1nc(N2CCN(C(=O)[C@H]([C@@H](C)O)n3cc(CCCCN)nn3)CC2)nc(N2CCN(C(=O)[C@H](CCCCN)n3cc(CCC(=O)O)nn3)CC2)n1	nt	-4.7%	nt	-0.9%
Cc1cc(NC(=O)CN2CCCCCCC2)no1	-9.6	0.7%	-7.5%	-0.7%
CC1(c2nnc(Cc3ccccc3)o2)CC(c2cccc([N+](=O)[O-])c2)=NO1 (stereo not given)	nt	2.0%	nt	?
O=C(C[n+]1cc(-c2ccccc2)n2c1CCCCC2)c1ccc(Br)cc1	0.3	2.5%	18.2%	1.4%

Sorted by value in GLA inh pH 4.5 (falling): 4 of the compounds above
molecule | GLA inh pH 4.5 | Rango release inh | miR-21 reporter | Rango-impB inh
CC1(C)CC(=O)C=C(N2CCCC2)C1 | 3.5 | 1.2% | -1.9% | -0.1%
Cc1ccccc1Cn1c(C)cc(C)c(C#N)c1=O | -0.6 | -13.0% | -1.0% | -3.4%
CN(Cc1ccccc1)C1CC(=O)N(c2ccc(C(=O)O)cc2)C1=O (stereo not given) | -2.0 | -4.5% | -10.8% | ?
NS(=O)(=O)c1ccc(CCNC(=O)CSc2nc3ccsc3c(=O)n2CC(=O)O)cc1 | -2.5 | 35.3% | -3.8% | -2.5%

Taken from above.
`Cc1ccccc1S(=O)(=O)Cc1ccc(C(=O)NCCCN2CCCC(C)C2)o1` (stereo not given) in Rango release inh → 18.7%
`COc1cc(C(=O)Nc2cccc(C)c2C)ccc1OCC(=O)N1CCOCC1` in Rango release inh → -1.8%
`CCCCOc1ccccc1C(=O)NCCCCCC(=O)O` in GLA inh pH 4.5 → 3.3
`O=[N+]([O-])c1ccc(Cl)c(S(=O)(=O)NCC2CCCO2)c1` (stereo not given) in Rango release inh → -3.5%

High-throughput results: PubChem, National Center for Advancing Translational Sciences (NCATS)

This is a subset; count on the stated rates, not on these rows.
